Bst PK mod: Pyruvate Kinase | partly purified Bacillus stearothermophilus pyruvate kinase, luminescence ATP production; ribose 5-phosphate activator present at AC10 | Potency, µM | hit rate 1.2% among 51,000; in the data active means potency below about 11 µM; inconclusive means mostly about 12 µM to 25 µM; inactive means weaker than that;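 the screen sought inhibitors and activators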;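 further: potency means the concentration at half of the fitted maximal effect; scaled between full activation by ribose 5 phosphate and full inhibition by luteolin; about four in five hits inhibit and the cells do not say which; series up to 57 µM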
YjeE inh: qHTS Assay for Inhibitors of YjeE; tRNA threonylcarbamoyladenosine biosynthesis protein TsaE (Escherichia coli (strain …; purified YjeE, fluorescence polarisation of a bound ADP probe; Potency, µM; hit rate 0.05% among 71,000; active = well fitted falling curve; inconclusive = weaker or top-dose-only fall, or a rising curve; inactive = flat or poorly fitted curve;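 further: top concentration of the series not given in the record; excess ADP was the control for the full effect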
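Fluorescence polarization of a BODIPY Texas Red–ADP probe (2 uM) bound to purified YjeE (10 uM) was read after 15 min room-temperature incubation with compounds. Loss of polarization marks inhibitors; ADP serves as titrated control.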
The depositor's hits bear a star; i = inactive; ? = inconclusive; nt = not tested or not shown. This is a subset; rates above refer to the full screens.

SMILES	Bst PK mod	YjeE inh
COc1ccc(CCNC(=O)c2nnn(-c3ccc4c(c3)OCCO4)c2N)cc1OC	>11	i
COCCNC(=O)CN(CC1CCCO1)C(=O)CCC(=O)Nc1ccccn1 (configuration not stated)	>57	i
CCOc1cccc(-c2nnc3sc(COc4ccc(OC)cc4)nn23)c1	>57	i
CCN1CCN(c2cc(C)c3cc(NC(=O)c4cncc(Br)c4)ccc3n2)CC1	>57	i
COCCN(CCOC)c1ncc(Cl)c(C(=O)c2c(C)cc3ccccn23)n1	>57	i
Cc1nn(C)c(C)c1S(=O)(=O)N1CCC(C(=O)NC2CCCCCC2)CC1	nt	i
CCN1CCN(Cc2cc(=O)oc3cc4c(cc23)CCC4)CC1	>57	i
O=S(=O)(O)c1ccc2c(N=Nc3c(O)ccc4ccccc34)cccc2c1	nt	i
O=C(O)CCN1C(=O)NC2(CCCC2)C1=O	>57	i
COc1ccc(CC(=O)Nc2cc(C)c3c(=O)oc4ccccc4c3n2)cc1	nt	i
Cc1cc(C)nc(SC2CCOC2=O)n1 (configuration not stated)	>57	i
CC(Cc1c[nH]c2ccccc12)NC(=O)C1CCCNC1=O (configuration not stated)	nt	i
CCOC(=O)C1=C(c2ccccc2)NC(SCC(=O)Nc2cccc(C)c2)=C(C#N)C1c1ccco1 (configuration not stated)	>57	i
COc1ccc(NC2=CC(=O)CC(C)(C)C2)cc1OC	nt	i
Cc1ccc2c(c1)-c1c(cnn1CC(=O)NC(C)CCc1ccco1)CO2 (configuration not stated)	nt	i
CN(c1ccccc1C(=O)NCc1ccccn1)S(C)(=O)=O	>57	i
CN(C)C(=O)N1CCCC(C(=O)NCc2ccccc2)C1 (configuration not stated)	>57	i
CCS(=O)(=O)N1CCN(C(=O)c2ccc(-c3ccccc3)cc2)CC1	>57	i
COc1ccc(S(=O)(=O)NCc2ccc(C(=O)N3CCN(c4ccccn4)CC3)cc2)cc1	>57	i
COc1ccccc1N(C)S(=O)(=O)c1ccc(C(=O)NC2=NCCS2)cc1	>57	i
Cc1[nH]c2c(Cl)cccc2c(=O)c1CN1CCCC1	>57	i
Nn1c(SCc2nc3ccccn3c2Br)nnc1-c1cccnc1	i	i
Cn1c(=O)n(C/C=C/c2ccccc2)c(=O)c2c1nc1n2CCCN1Cc1ccccc1	>57	i
O=C(CCc1nc(-c2ccccc2)no1)N1CCCC1	>57	i
CCCOc1ccc(/C(O)=C2/C(=O)C(=O)N(CCCn3ccnc3)C2c2cccs2)cc1 (configuration not stated)	>26	nt

Complete entries, looked up by structure:
`Cn1c(=O)n(C/C=C/c2ccccc2)c(=O)c2c1nc1n2CCCN1Cc1ccccc1` is listed with Bst PK mod = >57; YjeE inh = i
`Cc1nn(C)c(C)c1S(=O)(=O)N1CCC(C(=O)NC2CCCCCC2)CC1` is listed with Bst PK mod = nt; YjeE inh = i

Continued.
SMILES	Bst PK mod	YjeE inh
O=c1c2c3c(sc2ncn1/N=C/c1ccc(Br)o1)CCCC3	nt	i
CCn1[nH]c(=O)c(=Nc2c(C)n(C)n(-c3ccccc3)c2=O)cc1-c1ccc(Cl)cc1	>57	i
CN1C(=O)C2ON(c3ccccc3)C(c3cccs3)C2C1=O (configuration not stated)	>57	i
Cc1ccc(S(=O)(=O)Cn2nnnc2CN(Cc2ccco2)CC2CCCO2)cc1 (configuration not stated)	>57	i
C/C(=C\C(=O)c1ccc(C)o1)Nc1ccc(C(=O)O)cc1C	>57	i
Cc1nc(NCc2ccccc2)c2nc(-c3ccccc3)n(CCCN3CCOCC3)c2n1	nt	i
CC(=O)NCC(=O)N[C@H](CCC(=O)O)C(=O)O	nt	i
CCOc1ccccc1Nc1nnc(Cc2ccccc2Cl)c(=O)[nH]1	>57	i
CCOC(=O)C1CCCN(C2CC(=O)N(c3cccc(C)c3)C2=O)C1 (configuration not stated)	>57	i
Cc1nn2cc(-c3ccc(-c4ccccc4)cc3)nc2s1	nt	i
Cc1noc(C)c1CSc1nnc2sc3ccccc3n12	>57	i
CCCS(=O)(=O)NCCc1cc2cc(C)c(C)cc2[nH]c1=O	>57	i
CC1CCc2nc(NC(=O)CSc3nc4ccccc4o3)sc2C1 (configuration not stated)	>57	i
COC(=O)C1CCN(S(=O)(=O)Cc2ccccc2)CC1	>57	i
CN(C)S(=O)(=O)c1ccc(Nc2ccc(O)c3c2C(=O)c2c([N+](=O)[O-])ccc(O)c2C3=O)cc1	nt	i
Cc1ccccc1NC(=O)Cc1nnc(SCC(=O)N2CCN(c3ccccc3)CC2)n1C	>57	i
CCOC(=O)Cn1c(=O)oc2cc(S(=O)(=O)Nc3ccc(F)cc3)ccc21	nt	i
COc1ccc(OC)c2[nH]c(=O)c(CCNC(=O)c3ccc(S(=O)(=O)N4CCCC4)cc3)cc12	?	i
Cc1n[nH]c(=O)nc1N1CCN(c2ccccc2)CC1	>57	i
c1ccc2[nH]c(NCCCN3CCOCC3)nc2c1	>57	i
O=C(O)C[C@H](Nc1ccccc1)C(=O)O	nt	i
CCOC(=O)c1sc(NC(=O)c2cccc(S(=O)(=O)N3CCN(C)CC3)c2)cc1C	>57	i
CC(C)N(Cc1ccccc1)C(=O)COC(=O)c1ccc2c(c1)OCCO2	>57	i
CC1CN(c2oc(COc3ccc(Cl)cc3Cl)nc2C#N)CC(C)O1 (configuration not stated)	>57	i
COCCCC/C(=N\OCCN)c1ccc(C(F)(F)F)cc1	>26	nt
(cont.)
SMILES	Bst PK mod	YjeE inh
CCOc1ccc(-c2nc(-c3ccccc3)no2)cc1OCC	nt	i
Cc1cc(C)n2cc(CSc3nc4cc(Cl)ccc4o3)nc2n1	>57	i
Cc1ccc(S(=O)(=O)NCC(=O)OC2CCOC2=O)cc1 (configuration not stated)	>57	i
CC(C)(C)/C(O)=C(/C#N)c1nc2ccccc2[nH]1	nt	i
O=C(CN(C(=O)CCC(=O)Nc1nccs1)c1ccccc1F)NCC1CCCO1 (configuration not stated)	>57	i
CC1CCN(c2ccc(C(=O)NCc3cccs3)cn2)CC1	nt	i
Cc1ccc(P(=Nc2ccccc2)(N2CCOCC2)N2CCOCC2)o1	>57	i
COC(=O)c1oc2ccc(Br)cc2c1-n1cccc1	>57	i
Cc1cc(C)n(-c2nc3c(c(=O)n(Cc4ccc(Cl)c(Cl)c4)c(=O)n3C)n2C)n1	>57	i
Cc1ccc(-n2c(=O)[nH]cc(C(=O)Nc3ccc4c(c3)OCCO4)c2=O)cc1C	>57	i
COc1ccc(N2CCN(C(=O)CSc3ccccc3N)CC2)cc1	>57	i
COc1ccc(C(=O)N2CCC3(CCCN(c4ccccc4)C3)CC2)cc1	nt	i
Cc1ccc(N2C(=O)[C@@H]3C(c4ccc(F)cc4)=NO[C@@H]3C2=O)cc1	>57	i
CCCN1Cc2cccc(C(=O)NCCCOC(C)C)c2C1=O	>57	i
Cc1ccc(C2C=C(c3ccc4c(c3)OCO4)Nc3ncnn32)cc1 (configuration not stated)	>57	i
O=C(CCN1c2ccccc2Sc2ccccc21)OCC(=O)N1CCN(C(=O)c2ccco2)CC1	>57	i
O=C1NC2(CCCCC2)Cc2ccccc21	nt	i
O=C(Nc1ccc2c(c1)OCO2)C(c1ccc(Cl)cc1)N1CCC2(CC1)OCCO2 (configuration not stated)	>57	i
c1ccc2sc(SCc3ccc(-c4nnco4)cc3)nc2c1	>57	i
COc1ccc(-c2ccc(SCC(=O)N3CCCC3)nn2)cc1OC	nt	i
COC(=O)c1ccc2c(=O)n(CCN3CCOCC3)c(=S)[nH]c2c1	>57	i
O=C1CC(c2ccc3c(c2)OCO3)CN1 (configuration not stated)	>57	i
COC(=O)Sc1nnc(-c2ccc(Br)cc2)o1	>57	i
Cc1nc2cnc(N(C)C)nc2n(C)c1=O	nt	i
CC(=O)N1CC=CC1(CC(C)C)C(=O)O (configuration not stated)	nt	i

Of the compounds above, 11 have an NH in an aromatic ring.
SMILES	Bst PK mod	YjeE inh
CC(Cc1c[nH]c2ccccc12)NC(=O)C1CCCNC1=O (configuration not stated)	nt	i
Cc1[nH]c2c(Cl)cccc2c(=O)c1CN1CCCC1	>57	i
CCn1[nH]c(=O)c(=Nc2c(C)n(C)n(-c3ccccc3)c2=O)cc1-c1ccc(Cl)cc1	>57	i
CCOc1ccccc1Nc1nnc(Cc2ccccc2Cl)c(=O)[nH]1	>57	i
CCCS(=O)(=O)NCCc1cc2cc(C)c(C)cc2[nH]c1=O	>57	i
COc1ccc(OC)c2[nH]c(=O)c(CCNC(=O)c3ccc(S(=O)(=O)N4CCCC4)cc3)cc12	?	i
Cc1n[nH]c(=O)nc1N1CCN(c2ccccc2)CC1	>57	i
c1ccc2[nH]c(NCCCN3CCOCC3)nc2c1	>57	i
CC(C)(C)/C(O)=C(/C#N)c1nc2ccccc2[nH]1	nt	i
Cc1ccc(-n2c(=O)[nH]cc(C(=O)Nc3ccc4c(c3)OCCO4)c2=O)cc1C	>57	i
COC(=O)c1ccc2c(=O)n(CCN3CCOCC3)c(=S)[nH]c2c1	>57	i

The listing continues.
SMILES	Bst PK mod	YjeE inh
CCOCCN1CCN(c2c3c(nc4cc(-c5ccc(F)cc5)nn24)CCC3)CC1	>57	i
COCCn1c(=O)c(-c2cc(F)cc(F)c2)nc2cnc(Oc3cccc(Cl)c3)nc21	nt	i
CCOC(=O)c1nnn(-c2nonc2N)c1CSc1ccccn1	>57	i
O=C(CCS(=O)(=O)c1ccc(Cl)cc1)Oc1ccc2c(c1)OCO2	nt	i
Cc1cc(C)n(-c2ccc(Cl)c(C(=O)OCC(=O)N3CCCCC3C)n2)n1 (configuration not stated)	>57	i
CCOC(=O)c1cnn(CCOC(=O)Cc2cccs2)c1NC(=O)Cc1cccs1	>57	i
Oc1ccc(Nc2nc(N3CCCC3)c3ccccc3n2)cc1	i	i
CC(C)OCC(O)CN (configuration not stated)	>57	i
COc1ccccc1CNc1ccnc(-c2ccccc2Cl)n1	nt	i
COCCn1c(SCc2c(F)cccc2Cl)nc2c1c(=O)[nH]c(=O)n2C	>26	nt
COC(=O)c1ccc(NC(=O)CSc2nnc(-c3ccncc3)n2C)cc1	>57	i
CN1CCN(S(=O)(=O)c2ccc(NC(=O)c3cccs3)cc2)CC1	>57	i
c1csc(CNc2nc(-c3ccoc3)nc3ccccc23)c1	nt	i
CCCCNC(=O)CC1N=C2c3ccccc3N=C(SCC(=O)Nc3ccc(OC)cc3)N2C1=O (configuration not stated)	>57	i
O=C(Cn1nnc2c(cnn2-c2ccccc2)c1=O)N1CCN(c2ccccc2F)CC1	>57	i
CCNS(=O)(=O)c1ccc(NC(=O)Cn2nc(C(F)(F)F)cc2C)cc1	>57	i
O=C(Nc1ccc(Nc2ccc3c(c2)C(=O)c2ccccc2C3=O)c2c1C(=O)c1ccccc1C2=O)c1ccccc1	nt	i
CC(=O)NCCOc1nc(N(C)C)nc(N2CCOCC2)n1	>57	i
CC(C)CC1NC2(C(=O)N(C)c3ccccc32)C2C(=O)N(C(C)C)C(=O)C12 (configuration not stated)	nt	i
COc1cccc(-c2nc(N(C)C)c3ccccc3n2)c1	nt	i
CCCSCCCNC(=O)CC1Oc2ccccc2NC1=O (configuration not stated)	nt	i
COc1ccc(C(=O)/C=C/Nc2cc(C)on2)c(OC)c1	3.8*	i
CCOc1ccc2[nH]c(=O)c(CN(Cc3ccco3)C(=O)c3cccc(F)c3)cc2c1	>57	i
CCOC(=O)c1c(N)nn(C(=O)C(C)C)c1-c1ccccc1	>57	i
Cc1ccc(-n2c(Cc3cccn3C)nnc2SCC(=O)Nc2ccc3c(c2)OCO3)cc1	>57	i
(list continues)
SMILES	Bst PK mod	YjeE inh
CC(C)C(=O)N1CCN(c2ccc(NC(=O)c3ccc(Br)o3)cc2)CC1	>57	i
CCN(CC)CCOC(=O)C1(c2ccc([N+](=O)[O-])cc2)CCCC1	nt	i
CCCC[C@@H]1C[C@H]1C(NC(=O)c1cccs1)c1ccc(Cl)cc1 (some centres not stated)	nt	i
N/C(CC(=O)Nc1cc(C(F)(F)F)ccc1Cl)=N\O	nt	i
Oc1ccccc1C1=NCCNC(C(F)(F)C(F)F)=C1	>57	i
c1ccc(COc2cccc(CN3CCN(c4ccccn4)CC3)c2)cc1	>57	i
CCC(C)NC(=O)c1ccc(NC(=O)C2CCCO2)cc1 (configuration not stated)	>57	i
CNC(=O)CSc1nnc(COc2ccc(Cl)cc2)n1CCOC	>57	i
Cc1cccn2c(=O)c3cc(C(=O)Nc4ccc(N(C)C)cc4)n(C)c3nc12	>57	i
CCOC(=O)c1c(C)[nH]c2cc(Br)c(O)cc12	?	i
COc1ccccc1-c1nnc(SCc2ccccn2)n1C	>57	i
CC1(C)CC(=O)C2=C(C1)N(CC1CCCO1)C(=O)NC2(C(F)(F)F)C(F)(F)F (configuration not stated)	>57	i
COc1ccc(NC2CC(=O)N(C(C)C)C2=O)cc1 (configuration not stated)	>57	i
CCc1nnc(NC(=O)CSc2nnc(-c3ccc(OC)cc3)n2C)s1	>57	i
CC1Oc2ccccc2N(CC(=O)N2CCCc3ccccc32)C1=O (configuration not stated)	>57	i
CCCNC(=O)c1cccc(COCC(F)(F)C(F)F)c1	>57	i
CC(C)NCC(O)COc1ccc(CC(N)=O)cc1 (configuration not stated)	>26	nt
CCn1c(SCc2nc3ccccc3c(=O)[nH]2)nnc1-c1cccnc1	>57	i
CCCCNC(=O)c1cc2c(=O)n3cccc(C)c3nc2n(Cc2ccncc2)c1=N	nt	i
Cc1cc(N=Cc2cc(Cl)ccc2O)no1	nt	i
COc1ccc(-c2ccc(-c3noc(-c4ccc(OC)c(OC)c4)n3)c(OC)n2)cc1	>57	i
COc1ncc2nc(-c3cn(C)c4ccccc34)c(=O)n(Cc3ccc(F)cc3)c2n1	nt	i
COc1ccccc1NC(=O)N(CCCN1CCOCC1)Cc1cc2cc3c(cc2[nH]c1=O)OCO3	>57	i
Cc1ccc(NC(=O)c2c(C)nc(Nc3nc4ccccc4o3)nc2C)cc1	>57	i

Screening data deposited in PubChem by National Center for Advancing Translational Sciences (NCATS).
